Beta2AR agonist: beta2AR agonists driving receptor internalization, primary screen, cell-based, FAP fluorogen, flow cytometry | Beta-2 adrenergic receptor (Homo sapiens), P07550 | Am2.2-beta2AR cells; reference of the scale not given here | response, % (test concentration not listed) | 0.43% of 340,000 active;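 active means response above a set limit, near 3 SD of response in nonfluorescent compounds, cut at about 42% in these data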;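 further: stock transfer was 100 nL into about 11 µL; a reference agonist was the positive control; negative values mostly stem from fluorescent compounds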
Vif TR-FRET: inhibitors of Vif binding to APOBEC3G peptide, primary screen, biochemical, TR-FRET, GST-Vif 1-94, biotin-A3G peptide, dose response retest (AID 1117319). TR-FRET GST-Vif / biotin-A3G peptide binding; higher % means a stronger effect; test concentration not given here; strong numbers were not always called active. Virion infectivity factor (Human immunodeficiency virus type 1 group M subtype B (isolate …. 0.57% of 260,000 active. inhibition, %; hits with a dose series show IC50 in µM;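 active means above the screen mean plus three standard deviations and confirmed in dose response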;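 further: Vif residues 1-94 fused to GST binding biotinylated APOBEC3G peptide 110-148; 0% = full assay without inhibitor and 100% = GST in place of GST-Vif; retest series ran down from 100 µM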
LANA-H2A inh: blockers of LANA interaction with H2A/H2B – biochemical, FP readout, HTS, primary screen; 0.6% of 320,000 active; inhibition, % (test concentration not listed); Protein LANA1 (Human herpesvirus 8 type P (isolate GK18)), Q9QR71; cell-free LANA-H2A/H2B peptide, fluorescence polarization; in the data active means inhibition mostly above about 10%, no sharp cut-off; inactive means mostly below about 6.7%;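 further: stock transfer was 7.5 nL into about 10 µL; 0% = median of vehicle wells and 100% = median of positive control wells; one replicate is shown; the record names a cut of 25% in any replicate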
Target sequence (Q9QR71 whole entry, looked up): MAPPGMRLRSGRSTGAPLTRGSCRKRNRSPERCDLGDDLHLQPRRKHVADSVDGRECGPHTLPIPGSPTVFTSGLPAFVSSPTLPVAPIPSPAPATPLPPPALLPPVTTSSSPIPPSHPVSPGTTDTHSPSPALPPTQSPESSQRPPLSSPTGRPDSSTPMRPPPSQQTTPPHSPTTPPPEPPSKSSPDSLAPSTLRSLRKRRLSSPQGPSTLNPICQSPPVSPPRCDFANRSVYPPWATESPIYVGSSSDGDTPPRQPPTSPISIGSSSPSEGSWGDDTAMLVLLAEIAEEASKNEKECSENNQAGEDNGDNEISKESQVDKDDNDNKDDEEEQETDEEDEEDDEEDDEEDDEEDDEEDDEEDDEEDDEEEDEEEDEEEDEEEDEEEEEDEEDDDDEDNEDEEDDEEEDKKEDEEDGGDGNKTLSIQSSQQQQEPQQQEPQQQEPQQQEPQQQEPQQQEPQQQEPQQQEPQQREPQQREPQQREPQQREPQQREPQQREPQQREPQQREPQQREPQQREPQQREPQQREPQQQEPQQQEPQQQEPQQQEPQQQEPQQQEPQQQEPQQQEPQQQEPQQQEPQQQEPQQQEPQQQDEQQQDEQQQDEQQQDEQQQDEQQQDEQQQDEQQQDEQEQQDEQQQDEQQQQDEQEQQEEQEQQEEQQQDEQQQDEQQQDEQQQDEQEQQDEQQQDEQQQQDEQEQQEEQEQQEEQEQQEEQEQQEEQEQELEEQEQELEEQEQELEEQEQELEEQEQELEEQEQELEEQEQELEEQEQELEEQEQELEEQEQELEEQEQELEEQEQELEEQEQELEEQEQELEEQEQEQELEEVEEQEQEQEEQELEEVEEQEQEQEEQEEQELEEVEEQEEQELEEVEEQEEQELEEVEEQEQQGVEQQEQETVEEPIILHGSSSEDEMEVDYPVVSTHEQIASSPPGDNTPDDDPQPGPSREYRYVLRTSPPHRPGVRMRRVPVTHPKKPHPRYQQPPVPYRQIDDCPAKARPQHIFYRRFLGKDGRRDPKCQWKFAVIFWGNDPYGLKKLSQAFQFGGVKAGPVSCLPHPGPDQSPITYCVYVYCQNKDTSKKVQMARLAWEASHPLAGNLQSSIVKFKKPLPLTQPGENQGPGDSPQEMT
HNF4A DNA FP: change in binding of human HNF4A to DNA, primary screen, biochemical, fluorescence polarization, FITC-DNA; AID 1224865, 2016; 0.3% of 360,000 active; 1 h; activity change, % at 10 µM; in the data active means activity change above about 30%, passing the limit was not always enough;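 further: controls were the assay level and a saturating level of protein; the project sought stronger binding though the title names inhibitors; some compounds called inactive have numbers as strong as hits; positive values seem to mean higher polarization but the record does not say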
UCH37 DUB inh: inhibitors of human UCH37 deubiquitinase, primary screen, biochemical, Ub-AMC cleavage, fluorescence. purified proteasome/UCH37. inhibition, % (no concentration beside the values). 0.33% of 330,000 active. AID 588478, 2011;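 active means mean of two replicates above 20%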;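 further: 0% = compound-free wells with enzyme and 100% = wells lacking proteasome; stock transfer was 100 nL into about 20 µL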
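Material: Human UCH37 enzyme supplied as purified proteasome complex | Schedule: 30 min compound-proteasome preincubation then 25 min substrate reaction, room temperature | Detection: AMC fluorescence from Ub-AMC cleavage, excitation 355 nm, emission 460 nm | Benchmarks: Wells without proteasome as full block, compound-free enzyme plus substrate as uninhibited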
E coli growth: E. coli growth inhibition, primary screen, OD600 | 0.21% of 330,000 active | Escherichia coli growth, 23 h; active compounds read low | OD600 absorbance (test concentration not listed);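 active means OD600 absorbance below the run mean of sample wells minus 3.6 SD, in any replicate, cut at about 0.56 in these data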;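 further: stock transfer was 300 nL into about 60 µL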
Bfl-1 A1 inh: caspase 3/7 activation in MEF A1-2A-BIM cells, primary screen, A1 inhibitor project, cell-based, luminescence, HTS; Caspase-Glo 3/7 luminescence, 3 h; percent of clofoctol response, vehicle zero; caspase activation, % (concentration not given with the values); 0.066% of 330,000 active;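 active means over half of replicate activation scores above 10%, or exactly half above 10 with the replicate mean above 10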;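 further: wells of about 30 µL received 50 nL stock; many hits fall short of the cut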
Starred values were filed as active, the others as inactive; i = inactive; / = no result given; & = joins results of further samples.

SMILES	Beta2AR agonist	Vif TR-FRET	LANA-H2A inh	HNF4A DNA FP	UCH37 DUB inh	E coli growth	Bfl-1 A1 inh
CC(C)C(=O)N1CCN(C2=NS(=O)(=O)c3ccccc32)CC1	2.4	4.4%	-2.6	-3.5	-2.0	0.673	-0.5
C/C(=N/NC(=O)c1cccnc1)C1=C(O)CC(C)(C)CC1=O	-4.0	/	1.5	-5.7	/	/	-0.4
COc1ccccc1C(=O)NCCC(=O)NCCOc1ccccc1	-2.5	-3.1%	-2.1	4.9	4.4	0.698	-0.3
CCCCn1c(N)c(N(CCOC)C(=O)c2ccc(OCc3c(C)noc3C)cc2)c(=O)[nH]c1=O	1.2	5.4%	5.0	1.4	3.8	0.664	-1.1
CN1CCN(CCCc2c3c(cc4c2CCC4)CCC3)CC1	-3.2	/	-2.9	1.9	1.7	0.692	0.2
COc1ccc(CNC(=O)[C@@H](C)NC(=O)C2CCN(C(=O)[C@@H](N)CCSC)CC2)cc1	-2.1	/	7.0	3.5	2.6	0.768	0.4
C[C@H]1CN(S(=O)(=O)c2ccc3c(c2)OCCO3)CCN1S(=O)(=O)c1c(F)cccc1F	-2.0	/	1.6	-1.1	2.1	0.795	0.2
COc1ccc(C2c3sc(=O)[nH]c3SC3C4CCC(C4)C23)cc1OC (stereo unspecified)	-0.6	5.4%	-8.3	-2.8	2.6	0.769	0.3
O=C(N=C1SC2CS(=O)(=O)CC2N1c1ccc(F)cc1)C1CCCCC1 (stereo unspecified)	-10.4	-6.2%	-4.7	1.8	-1.6	0.698	2.0
CCOC(=O)NC(=O)COC(=O)CCCSc1nc2ccccc2s1	4.3	4.9%	0.4	2.0	0.3	0.69	-1.3
O=C(COc1ccccc1)Nc1sc2c(c1C(=O)NCc1cccnc1)CCCC2	0.1	-3.9%	-3.1	-12.5	-1.5	0.709	0.3
Nc1nc(CN2CCN(c3cccc(Cl)c3)CC2)nc(N2CCCc3ccccc32)n1	17.0	9.8%	-1.6	2.0	0.5	0.735	0.2
Cc1cc(Cl)ccc1NC(=S)NC(C)(C)C	2.5	-10.5%	4.6	-1.9	4.5	0.676	1.4
O=C(NCc1ccco1)C(=O)c1cn(CC(=O)N2CCCCC2)c2ccccc12	-0.5	0.9%	1.8	-0.7	2.3	0.681	0.0
CSc1ccccc1NC(=O)Nc1cccc(Cl)c1C	0.2	/	-7.1	-4.0	-0.2	0.699	-0.4
COc1ccc(-c2cc3c(=O)n(CC(=O)NCc4ccccc4OC)ncn3n2)cc1	2.2	/	-3.5	-2.2	3.0	0.664	0.0
O=S(=O)(c1ccc(N=C2NN=C(c3cc(F)ccc3F)CS2)cc1)N1CCOCC1	12.3	15.8%	/	3.2	2.7	/	/
Cc1ccc(N(C)S(=O)(=O)c2cccc(C(=O)Oc3ccc4c(C)cc(=O)oc4c3)c2)cc1	13.7	7.6%	4.0	4.7	i	0.697	0.1
COc1cc2c(cc1OC)CN(C(=O)CSc1ccc(F)cc1)CC2	-0.1	-4.7%	/	1.4	-0.8	0.665	-0.3
NC(N)=N/N=C/c1c(Cl)cccc1Cl	1.3&10.8	29.2%&27.2%	11.5&3.0&-6.0	-2.5&2.0	/	/	0.2&0.0
CCOC(=O)C1CCN(C(=S)Nc2ccc(CC)cc2)CC1	9.6	-2.2%	-2.8	5.3	-0.1	0.704	0.4
CN(CC(=O)Nc1ccccc1C(F)(F)F)C(=O)c1cc2c(s1)CCCCC2	-6.5	-2.8%	-3.6	-1.4	2.4	0.601	-0.1
Cc1ccc2[nH]c(=O)c(CN(C)S(=O)(=O)c3cccc4nonc34)cc2c1	-5.7	-1.5%	-0.1	-0.6	6.9	0.697	1.3
CC(C)(C)OC(=O)N1CCC(NC(=O)c2nc[nH]c2C(=O)NC2CCN(C(=O)OC(C)(C)C)CC2)CC1	-5.8	/	1.1	0.0	1.5	0.634	-1.0
CCOc1ncnc2c1[nH]c1ccccc12	-3.5	-9.2%	-3.6	2.4	-54.3	0.669	0.2
Continued.
SMILES	Beta2AR agonist	Vif TR-FRET	LANA-H2A inh	HNF4A DNA FP	UCH37 DUB inh	E coli growth	Bfl-1 A1 inh
CCOC(=O)c1[nH]c2c(c1C)C(=O)CC(c1ccc(OCC)c(OC)c1)C2 (stereo unspecified)	7.0	-0.1%	1.9	1.9	0.6	0.777	0.8
O=C(COc1ccc(F)cc1)Nc1nc(-c2ccccn2)cs1	1.7	-13.2%	0.5	3.4	1.1	0.632	-0.4
CCc1ccc(-n2nnnc2SCC(=O)NNC(=O)c2ccco2)cc1	2.9	6.9%	8.1	-0.2	5.3	0.676	-0.7
COc1cccc(-c2nc(NCc3cccnc3)c3ccccc3n2)c1O	-0.3	3.4%	12.0	5.3	7.0	0.697	-0.2
Cn1c(/C=C/c2ccc(Cl)cc2Cl)c([N+](=O)[O-])c(=O)n(C)c1=O	9.3	4.3%	3.5	3.3	0.7	0.678	1.1
COc1ccc2c(c1)S(=O)(=O)c1ccccc1N2	4.1	-6.8%	-5.6	1.7	-6.9	0.671	0.9
Cc1ccc(C)c(Nc2nc(-c3cccnc3)cs2)c1	-44.4	/	-1.8	1.3	0.8	0.698	-1.7
CCCn1c(N)c(N(CCOC)C(=O)c2ccc(N(C)S(=O)(=O)c3ccc(C)cc3)cc2)c(=O)[nH]c1=O	-10.2	-4.3%	/	-1.5	0.5	0.59	1.7
CCN(CC(=O)Nc1cc(Cl)ccc1C)C(=O)CN1C(=O)NC(CC)(c2ccccc2)C1=O (stereo unspecified)	5.9	-1.6%	/	-0.6	-0.6	0.671	0.5
O=C(COC(=O)/C=C/c1cccc(C(F)(F)F)c1)NCc1ccc(F)cc1	1.4	5.5%	-2.7	1.9	0.7	0.677	1.0
CC1CCCC(C)N1C(=O)c1cc(-c2ccc3c(c2)OCO3)on1 (stereo unspecified)	-3.7	4.7%	2.8	1.6	3.7	0.696	0.4
O=C(CNS(=O)(=O)c1ccc(Br)s1)NC1CCCc2ccccc21 (stereo unspecified)	-4.2	-4.4%	2.8	-0.2	4.4	0.728	-0.3
COc1ccccc1CNC(=O)CSc1cc(=O)n(C)c2ccccc12	-7.5	-120.7%	-1.7	2.1	3.3	0.695	0.3
O=C(Cc1ccc(Cl)c(Cl)c1)Nc1cccc2ncccc12	-0.1	/	-0.2	1.2	3.0	0.735	0.8
O=C(Nc1ccc2c(c1)CCC2)c1cc2ccccc2o1	1.0	4.3%	2.7	1.0	1.3	0.641	-4.7
O=C(N/N=C/C(Br)=C/c1ccccc1)C(O)c1ccccc1 (stereo unspecified)	-2.3	9.5%	-0.5	-0.6	/	/	-0.1
CC(=O)c1ccc(N2CCN(S(=O)(=O)c3cc(-c4cc(C)no4)ccc3C(C)C)CC2)cc1	2.6	/	2.6	0.9	-4.6	0.691	0.0
COCCCNC(=O)CC1C[C@H](C(=O)N2CCCCC2)[C@@]2(CCc3ccccc3)c3[nH]c4ccccc4c3CCN2C1=O (stereo partly specified)	-0.4	-8.0%	/	-3.6	1.0	0.719	-0.3
CN(C)c1cc[n+](CC(=O)Nc2c(Cl)cc(Cl)cc2Cl)cc1	-4.6	1.4%	2.2	-3.3	5.2	0.662	0.8
COc1cnc(SCc2ccc(Cl)c(Cl)c2)nc1Cl	-2.7	1.0%	-0.6	-3.1	0.4	0.734	0.4
CCCCN(C(=O)C1CC(=O)N(CCc2ccc(OC)c(OC)c2)C1)c1c(N)n(CC(C)C)c(=O)[nH]c1=O (stereo unspecified)	-2.8	/	/	-1.2	0.0	0.683	/
S=C(NCC1CCCO1)N1CCN(c2ccc(Cl)c(Cl)c2)CC1 (stereo unspecified)	-12.6	4.5%	2.5	0.1	5.4	0.66	0.8
O=C(N[C@@H](Cc1ccccc1)C(=O)O)c1cccs1	2.9	/	0.2	2.5	/	/	-0.8
Cn1c(SCC(=O)Nc2cccc(S(=O)(=O)NC3=NCCCCC3)c2)nnc1-c1ccncc1	9.4	2.4%	-1.6	2.2	3.5	0.676	0.0
N=c1c2c3c(sc2ncn1Cc1ccco1)CCCCC3	-18.9	-3.2%	-1.5	2.2	0.1	0.634	0.8
(next part)
SMILES	Beta2AR agonist	Vif TR-FRET	LANA-H2A inh	HNF4A DNA FP	UCH37 DUB inh	E coli growth	Bfl-1 A1 inh
COc1ccc(-c2nnn(CC(=O)NC(=O)NC3CCCCC3)n2)cc1OC	6.2	-4.0%	/	-2.6	5.2	0.649	0.7
COc1cc(OC)cc(C(=O)NNC(=O)CCC(=O)c2cccs2)c1	-6.2	/	3.1	3.8	0.4	0.702	-1.0
C=CCNC(=O)C1CC(c2cccc(OC)c2)=NO1 (stereo unspecified)	-1.3	5.6%	1.8	1.1	3.1	0.693	0.7
COc1cccc(/C=C2\SC(=O)N(CCC(=O)NCCCn3ccnc3)C2=O)c1	3.6	6.2%	2.2	-3.5	2.2	0.711	0.6
Cc1ccccc1Nc1c([N+](=O)[O-])ccc2c1=NC1(CCCCC1)N=2	2.6	9.7%	-2.2	7.1	6.9	0.661	-0.1
CC[C@@]1(C(=O)OC)N[C@H](CN(C)C(=O)Nc2ccc(OC)cc2)[C@@H]2C(=O)N(C)C(=O)[C@@H]21	-0.3	11.4%	3.3	0.1	-0.1	0.665	0.1
C=CC[N+](C)(C)C/C(Cl)=C(\Cl)c1ccccc1	-3.9	0.1%	-2.0	1.3	-0.1	0.781	0.0
COc1ccc(S(=O)(=O)NCc2ccc(C(=O)NCCCN3CCCC(C)C3)cc2)cc1 (stereo unspecified)	0.2	30.3%	-2.7	-0.2	1.4	0.606	-1.9
CN(CC(=O)Nc1ccc(Cl)c(C(F)(F)F)c1)C(=O)CCC(=O)c1ccccc1	1.5	/	-2.6	-4.2	-3.0	0.684	0.5
O=C(Nc1cc(S(=O)(=O)N2CCOCC2)ccc1N1CCOCC1)c1cccs1	22.4	-5.4%	5.2	-0.2	0.5	0.68	0.1
Cc1ccc(C(=O)O/N=C2\CCS(=O)(=O)c3sccc32)cc1	8.8	29.5%	4.5	1.6	/	/	0.6
CC1OC(Nc2cccc3ccccc23)C(O)C(O)C1O (stereo unspecified)	7.8	9.4%	-2.7	-1.0	-252.2	0.692	0.9
CC12CCC(=O)N1C(C(=O)NNC(=O)c1ccccc1F)CS2 (stereo unspecified)	5.7	-11.2%	-4.0	-0.6	4.4	0.696	0.6
O=C(COC(=O)/C=C/c1ccc(Cl)cc1)NCCC1=CCCCC1	-4.8	-7.2%	-2.7	4.2	3.4	0.695	-0.4
O=C(NC(=S)Nc1ccccc1Br)c1ccco1	-13.9	/	-2.8	1.3	2.5	0.671	-2.9
CCn1c2c(c(C)cc1=O)C(=O)CC(C)(C)C2	-0.6	2.8%	-0.8	-3.2	3.4	0.666	0.1
CC(=O)c1cccc(NC(=O)CN(C2CCCCC2)S(C)(=O)=O)c1	-5.0	-6.6%	-4.4	0.9	1.8	0.672	0.4
COc1cccc(CNC(=O)c2cccnc2Sc2ccccc2)c1	-0.5	-2.2%	5.6	5.0	4.0	0.666	-0.7
CC(C(=O)O)N1C(=O)/C(=C/c2cccn2C)SC1=S (stereo unspecified)	-1.7	/	-14.3	84.7*	18.2	0.716	0.9

Two entries picked at random from those above:
SMILES	Beta2AR agonist	Vif TR-FRET	LANA-H2A inh	HNF4A DNA FP	UCH37 DUB inh	E coli growth	Bfl-1 A1 inh
CC(=O)c1cccc(NC(=O)CN(C2CCCCC2)S(C)(=O)=O)c1	-5.0	-6.6%	-4.4	0.9	1.8	0.672	0.4
C=CC[N+](C)(C)C/C(Cl)=C(\Cl)c1ccccc1	-3.9	0.1%	-2.0	1.3	-0.1	0.781	0.0

High-throughput results as filed in PubChem.
